Screening results from PubChem BioAssay.
ClpP mod = qHTS Assay for Activators of ClpP | ATP-dependent Clp protease proteolytic subunit (Bacillus subtilis (strain 168)), P80244 | purified B. subtilis ClpP, FRET peptide cleavage, 20 min | Potency, µM (series often up to 57.5 µM), inactives show at the top dose activity change, negative = active | 340,000 compounds, 1.9% hits; active = well fitted falling curve with a large enough effect; inconclusive = small, poorly fitted or top-dose-only effect; inactive = no such curve, though single readings can be large or run the other way; further: potency means the concentration at half of the fitted maximal effect; the source files actives as falling curves though it sought activators and does not explain the sign; nearly all actives have a fitted effect of over 65% in size; many hits overshoot -100%
Target sequence (P80244 whole entry, looked up): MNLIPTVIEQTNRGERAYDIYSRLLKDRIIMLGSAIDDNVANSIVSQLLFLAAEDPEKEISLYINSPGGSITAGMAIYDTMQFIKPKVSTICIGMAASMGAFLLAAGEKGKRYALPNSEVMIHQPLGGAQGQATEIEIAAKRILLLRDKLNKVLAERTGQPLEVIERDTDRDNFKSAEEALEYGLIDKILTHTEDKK
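Purified B. subtilis ClpP, 10 microg/mL final in Tris/HCl pH8 with KCl, BSA, glycerol and Tween-20, cleaved an Abz/nitrotyrosine-quenched decapeptide. Fluorescence (ex 320, em 430) was read at 0 and 20 min at room temperature. Delta was normalized to 5.8 microM ADEP and DMSO/no-enzyme controls.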
Menin MLL FP FL = inhibitors of human menin-MLL interaction, wild-type MLL peptide | Fluorescence polarization, fluorescein-MLL peptide displacement from menin | FP activity change, % at 61.4 µM | 290,000 tested, under 10 active; inconclusive = falling polarisation curve, or a change in total fluorescence; inactive = total fluorescence flat and polarisation flat or rising; no compound was filed as active; the % refers to the polarisation; negative = inhibition;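 further: % of control where 0% means no effect; inhibitors lower the polarisation; unlabelled MLL peptide was the positive control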
D2 potentiator = potentiates the human D2 dopamine receptor allosterically | P14416 | DiscoveRx D2 beta-arrestin cells, luminescence, 90 min; 100% = 57 uM dopamine signal | potentiation, % (test concentration not listed) | 360,000 compounds, 0.23% hits | AID 624464; active = potentiation of 50% or more; inconclusive = 30% to 50%; inactive = 30% or less;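 further: compound concentration not given in the record; tested on top of an EC20 dose of dopamine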
Target sequence (P14416 whole entry, looked up): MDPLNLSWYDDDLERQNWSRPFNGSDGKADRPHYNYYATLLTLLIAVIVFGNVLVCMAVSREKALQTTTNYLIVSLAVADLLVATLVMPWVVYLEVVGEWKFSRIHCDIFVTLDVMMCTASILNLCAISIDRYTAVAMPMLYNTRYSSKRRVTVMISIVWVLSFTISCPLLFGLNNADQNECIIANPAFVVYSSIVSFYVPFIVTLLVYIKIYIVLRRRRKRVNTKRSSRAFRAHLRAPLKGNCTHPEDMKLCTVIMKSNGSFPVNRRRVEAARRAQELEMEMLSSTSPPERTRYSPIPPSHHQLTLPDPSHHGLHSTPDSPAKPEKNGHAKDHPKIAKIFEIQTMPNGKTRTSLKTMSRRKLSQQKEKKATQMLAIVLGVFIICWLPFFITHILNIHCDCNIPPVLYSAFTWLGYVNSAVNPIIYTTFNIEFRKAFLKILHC
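D2 cells co-treated with compound plus 50 nM dopamine (EC20) for 90 min at 37 deg C to detect potentiation. Beta-arrestin recruitment was read as enzyme-fragment luminescence after 1 h at ambient temperature. Full response was set by 57 uM dopamine.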
Sfp inh = Sfp phosphopantetheinyl transferase inhibition. Potency, µM, for the others: max response, negative = inhibition, most hits filed as inhibitors. AID 1490. Q9F4F7. Biochemical Sfp PPTase activity, qHTS. 310,000 compounds, 3.5% hits; active means well fitted inhibition curve with a large enough effect; inconclusive means small, poorly fitted or top-dose-only effect, or another doubt; inactive means no such curve, though single readings can be large or run the other way;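 further: the enzyme is Sfp with the accession as filed and its product quenches rhodamine fluorescence; potency means the concentration at half of the fitted maximal effect; 0% = enzyme reaction without inhibitor and -100% = no enzyme wells; top concentration of the series not given in the record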
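After 15 min at room temperature with compound, 15 nM Sfp received 5 uM rhodamine-CoA plus 12.5 uM BHQ-2-ybbR (50 mM Hepes pH 7.6, 10 mM MgCl2). Rate came from the fluorescence difference over 30 min, ex 525/em 598 nm.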
gsp antag = antagonists of gsp mutant (McCune-Albright syndrome); gsp-mutant cells, cAMP HTRF, 30 min; control for the full effect not named in the record; Potency, µM (doses to about 76.9 µM), inactives show at the highest dose activity change, negative = inhibition, hits mostly inhibitors; 340,000 compounds, 0.4% hits; active = falling curve of any shape with a large fitted effect; inconclusive = falling curve, mostly with a smaller effect; inactive = flat or rising curve; cell line not stated here;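 further: intracellular cAMP measured with PDE inhibitor Ro 20-1724 present during compound exposure; potency means the concentration at half of the fitted maximal effect; on the % scale 0 is the no-effect control and ±100 the full control effect; nearly all actives have a fitted effect of over 65% in size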
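HTRF cAMP measurement after 30 min RT detection following 30 min, 37C compound treatment alongside […] (added as 300 uM solution) in G418-selected cells seeded at 2000/well and grown 16–24 h.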
TRPV1 potentiator = enhances activation of the human vanilloid receptor TRPV1; 320,000 compounds, 0.02% hits; potentiation, % at 8.33 µM; Q8NER1; TRPV1-expressing cells, Fluo-8 calcium influx, capsaicin EC20 potentiation; host cell line not named in the record; control for the full effect not named in the record; active means potentiation above 80%; inconclusive means 30% to 80%; inactive means below 30%; further: 0% is about no effect
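Cells expressing TRPV1 were dye-loaded with Fluo-8 and read kinetically: 10 s baseline, 3 min after compound (agonist portion), then 2 min after EC20 capsaicin (allosteric enhancer portion). Calcium-bound dye fluorescence at 480/520 nm.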
gsp agonist = activates gsp, the McCune-Albright syndrome mutation; Potency, µM (series often up to 76.9 µM), inactives show top-dose activation (cAMP increase), most hits filed as activators; 340,000 compounds, 0.13% hits; AID 624287; gsp mutant cells, cAMP HTRF, 30 min; control for the full effect not named in the record; active = well fitted activation curve with a large enough effect; inconclusive = small, poorly fitted or top-dose-only effect, or another doubt; inactive = no such curve, though single readings can be large or run the other way; cell line not stated here;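 further: phosphodiesterase inhibitor Ro 20-1724 added with compounds to block cAMP breakdown; potency means the concentration at half of the fitted maximal effect; nearly all actives have a fitted effect of over 60% in size; about a fifth of the inactives were tested at one dose only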
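Cells in DMEM/10% FBS with G418 were pretreated with compounds in DMSO plus […] (300 uM stock) for 30 min at 37C. cAMP was measured by HTRF (cAMP-d2 plus anti-cAMP antibody-K) after 30 min at room temperature.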
Starred values were filed as active, the others as inactive; ? = inconclusive; / = no result given; & = joins results of further samples; [ ] = remark or other dose. This is a random part of the collection. Share with any hit: about 5.1%.

SMILES	ClpP mod	Menin MLL FP FL	D2 potentiator	Sfp inh	gsp antag	TRPV1 potentiator	gsp agonist
Cc1ccc(NC(=S)N2CCN(S(C)(=O)=O)CC2)cc1	0.3%	2.3	-8.9	9.7%	7.9%	-28.6	?
CC(NC(=O)CN1C(=O)NC2(CCCCC2)C1=O)c1ccc(S(N)(=O)=O)cc1 (stereo not given)	/	/	-1.8	/	13.8%	/	4.0%[15.4 µM]
COc1ccc(CCCc2n[nH]c(=S)n2C)cc1C	0.0%	5.7	-2.8	12.5%	-4.0%	17.2	-7.8%
CC(C)Sc1cc(N2CCOCC2)nc(-c2ccc(Cl)cc2)n1	-5.2%	6.3	-5.6	9.7%	8.1%	-13.4	?
CCOC(=O)c1c(C(=O)OCC)c(C)n(CCc2ccc(OC)c(OC)c2)c1C	-3.4%	1.7	28.1	1.4%	-30.4%	-5.3	?
Cc1c(C(=O)N2CCCCC2)c(S(=O)(=O)Nc2ccc(F)cc2F)c(C)n1C	-1.5%	0.6	0.5	23.4%	8.7%	3.4	17.9%
CC1=C(C(=O)Nc2ccc(F)cc2)C(c2ccc(C)o2)C2=C(CC(C)(C)CC2=O)N1 (stereo not given)	-12.7%	2.0	-4.8	-8.2%	-15.3%	1.3	10.4%
COc1cccc(CN(C)C(=O)CNC(=O)c2ccc(-c3ccccc3)cc2)c1OC	/	-1.4	-6.4	-2.1%	-25.4%	17.6	-2.3%[15.4 µM]
COc1ccc(C2CCN(Cc3cccnc3)CC2O)cc1 (stereo not given)	0.2%	0.0	-37.4	0.3%	-0.4%	11.8	-24.2%
COc1ccc(N2C(=O)CSCC2=O)cc1OC	/	0.2	-5.2	-4.6%	0.6%	1.4	0.3%
COc1cccc(C(=O)NC(=S)N2CCN(c3ccc(C(F)(F)F)cc3[N+](=O)[O-])CC2)c1	0.2%	2.1	-3.8	4.3%	-3.8%	-2.0	10.7%
CCc1ccccc1NC(=S)N(Cc1cccnc1)Cc1ccco1	0.2%	9.4	-11.8	13.2%	-0.6%	1.6	-24.9%[15.4 µM]
ON=C1c2ccccc2-c2ccc(O)cc21	0.9%	/	-18.2	/	3.8%	/	3.0%
Cc1cc(C)cc(NC(=O)c2cccc3c2C(=O)N(C2CCCCC2)C3)c1	?	/	-10.7	-7.0%	9.5%	10.5	?
CCOc1ccc(N2C(=O)S/C(=C\c3ccc(O)c(OC)c3)C2=O)cc1	-1.8%	?	-13.6	-8.6%	1.3%	-0.1	17.5%
CCOC(=O)c1nc2cc3n(c(C)c-2c1C)C(C)C(C)=C3C (stereo not given)	57.7%	-1.4	-7.1	5.2%	-6.5%[15.4 µM]	-36.9	-8.0%
O=C(COC(=O)COc1ccc(Cl)cc1Br)NC1CCCC1	-0.8%	/	-4.8	/	/	/	0.9%
Cc1ccccc1OCc1nnc(SCC(=O)NCc2ccccc2)n1C	-2.7%	0.4	1.1	21.1%	-11.7%	11.3	-2.6%
CCCCn1c(N)c(N(CCC(C)C)C(=O)C2CCCN(C(=O)c3ccc(Cl)cc3)C2)c(=O)[nH]c1=O (stereo not given)	-1.8%	/	6.0	/	5.9%	-4.8	38.9%
CC(C)n1ncc2c(C(=O)NCc3ccccc3CN(C)C)cc(C3CC3)nc21	4.2%	/	-3.3	/	8.5%	3.7	-26.0%
CN(C(=O)CSc1nnc(NCc2ccccc2)s1)C1CCS(=O)(=O)C1 (stereo not given)	/	-1.9	-4.2	3.7%	18.2%	-8.2	1.4%[15.4 µM]
Cc1cccc(C)c1NC(=O)N1CC=C(n2c(=O)[nH]c3ccccc32)CC1	1.2%	-0.2	-5.7	7.4%	19.1%	-0.4	23.2%
CN(C)C1=NC(=O)/C(=C\c2ccccc2)S1	-1.3%	-0.5	-2.3	15.7%	-6.1%	5.9	-52.0%[inhibitor]
COc1cc(N)c(Br)cc1C(=O)O	/	1.5	2.6	4.6%	1.2%	0.7	15.1%
O=C1CC(CCC(=O)NC2CC2)c2ccccc2N1 (stereo not given)	-2.2%	1.0	-5.7	-20.1%	11.0%	-0.4	-32.9%[inhibitor]
Cc1cc2n(n1)C(c1ccc(N(C)C)cc1)Nc1ccccc1-2 (stereo not given)	-26.6%	3.9	4.0	15.7%	-30.5%	1.0	-1.5%
CCC(Sc1nc(N)c(NC(=O)c2ccc(OC)cc2)c(=O)[nH]1)C(=O)O (stereo not given)	/	-1.7	-3.3	6.5%	13.6%	2.3	5.3%[15.4 µM]
COc1ccccc1CCNC(=O)c1ccoc1C	0.2%	-1.5	3.2	-2.8%	1.7%	4.4	0.2%
N#Cc1c(-c2ccccc2)nc2n1CCS2	/	0.3	-11.4	13.0%	-21.2%	8.4	16.2%[15.4 µM]
Cc1ccc(-c2nnn3c2nc(NCCc2ccc(S(N)(=O)=O)cc2)c2ccccc23)cc1	1.2%	-0.3	4.5	?	8.6%	-0.5	-0.4%[15.4 µM]
C/C(=N/N=C/c1ccccc1O)c1ccccc1O	/	6.0	0.9	1.4%	5.6%	4.9	?
Cc1ccc(S(=O)(=O)NCCS(=O)(=O)N2CCN(c3ccccc3)CC2)cc1	3.6%&11.8%	-16.7	-13.4	11.3%	11.4%	2.7	?
O=C(CNC(=O)c1ccco1)OCc1ccc(Br)cc1	-0.9%	-2.2	12.0	10.2%	9.1%	-18.2	5.8%
O=C(C1CC1)N1CCC(Oc2cccc(C(=O)N3CCCCC3CCO)c2)CC1 (stereo not given)	0.8%	1.8	-0.9	16.9%	3.9%	-7.5	6.7%
COc1ccc(CCNc2oc(-c3ccco3)nc2C#N)cc1	28.2µM*	-1.6	0.0	-1.3%	-10.4%	-6.1	-21.9%
COc1ccc2cc(C(N)=O)c(=Nc3ccccc3)oc2c1	/	-0.4	-9.2	9.7%	6.2%	-11.0	-11.7%
O=c1[nH]c(CN(CCc2ccccc2)S(=O)(=O)c2ccc(Cl)cc2)nc2ccccc12	7.6%	2.9	-12.2	0.1%	8.2%	10.9	-21.6%
CC1CCc2c(sc(NC(=O)c3ccc(N4C(=O)CCC4=O)cc3)c2C(N)=O)C1 (stereo not given)	-5.9%	/	-2.7	/	?	-1.8	9.4%
c1ccc(Nc2nc3ccccc3o2)cc1	-0.2%	2.1	-1.4	9.3%	-27.5%	12.9	-0.9%
CCCCNC(=S)N/N=C/c1cccc(OCC)c1O	/	0.8	-3.0	7.3%	5.8%	8.1	5.0%[15.4 µM]
CC(C)c1nnc(NC(=O)CCS(=O)(=O)Cc2ccccc2)s1	/	2.2	0.3	?	5.9%	0.6	-61.6%[inhibitor]
C[C@@H]1CN([C@H](C)CO)C(=O)CCCn2nncc2CO[C@H]1CN(C)C(=O)Nc1ccc(N2CCN(C)CC2)cc1	-2.5%	/	-6.2	/	/	/	?
O=C1C=C(c2cccc(Br)c2)C[C@@H](c2ccc3c(c2)OCO3)C1	-0.8%	/	-3.2	/	-2.4%	-5.7	0.0%
Cc1nn(CC(=O)N/N=C/c2ccc3c(c2)OCO3)c(C)c1Br	?	2.4	-10.9	2.4%	5.8%	0.1	-6.0%[15.4 µM]
CCCC(=O)N(CCN1CCOCC1)c1nc2c(C)cccc2s1	0.0%	3.2	-3.8	-3.0%	-11.7%	-6.5	21.7%

Ordered by SMILES length (falling): 4 of the compounds above
SMILES	ClpP mod	Menin MLL FP FL	D2 potentiator	Sfp inh	gsp antag	TRPV1 potentiator	gsp agonist
C[C@@H]1CN([C@H](C)CO)C(=O)CCCn2nncc2CO[C@H]1CN(C)C(=O)Nc1ccc(N2CCN(C)CC2)cc1	-2.5%	/	-6.2	/	/	/	?
O=c1[nH]c(CN(CCc2ccccc2)S(=O)(=O)c2ccc(Cl)cc2)nc2ccccc12	7.6%	2.9	-12.2	0.1%	8.2%	10.9	-21.6%
CC1CCc2c(sc(NC(=O)c3ccc(N4C(=O)CCC4=O)cc3)c2C(N)=O)C1 (stereo not given)	-5.9%	/	-2.7	/	?	-1.8	9.4%
O=C(CNC(=O)c1ccco1)OCc1ccc(Br)cc1	-0.9%	-2.2	12.0	10.2%	9.1%	-18.2	5.8%

Laid out differently: results already given
Order of values: ClpP mod	Menin MLL FP FL	D2 potentiator	Sfp inh	gsp antag	TRPV1 potentiator	gsp agonist
CC1CCc2c(sc(NC(=O)c3ccc(N4C(=O)CCC4=O)cc3)c2C(N)=O)C1 (stereo not given)
  -5.9%	/	-2.7	/	?	-1.8	9.4%
c1ccc(Nc2nc3ccccc3o2)cc1
  -0.2%	2.1	-1.4	9.3%	-27.5%	12.9	-0.9%

Next compounds follow:
SMILES	ClpP mod	Menin MLL FP FL	D2 potentiator	Sfp inh	gsp antag	TRPV1 potentiator	gsp agonist
O=C(Nc1ccc(N2CCCCC2)cc1)c1cncc(Br)c1	1.4%	-2.2	-8.5	5.5%	1.4%	8.9	-29.0%
O=C(COc1ccc2c(c1)C(=O)CC1(CCCCC1)O2)NCc1ccccn1	25.1µM*	2.5	-5.9	7.5%	-20.9%	-19.2	?
Fc1ccc(N2CCN(C3=Nc4cccc5cccc3c45)CC2)cc1	/	?	-17.7	7.5%	-0.2%	-13.8	-9.4%
CCCCOC(=O)Nc1cc(C)c(Cl)cc1OC	-4.0%	1.0	-15.1	-3.8%	-4.3%	8.5	-32.7%[inhibitor]
CCCC(=O)Nc1cc(C(F)(F)F)ccc1N1CCOCC1	-0.6%	7.4	-7.8	8.1%	12.6%	-29.7	1.0%[15.4 µM]
O=C1/C(=C/c2cccc3ccccc23)CCCc2ccccc21	3.4%	1.0	-8.1	-13.8%	-11.1%	6.8	-1.6%
O=C(CC(O)c1ccccc1)Nc1ccccn1 (stereo not given)	-19.9%	/	-4.3	/	12.6%	/	-9.8%
CCOC(=O)c1csc(NC(=O)CN2CCOCC2)n1	-4.5%	1.2	-11.7	-0.9%	-7.0%	-1.3	-6.9%
Cc1ccc(NC(=O)c2ccnc(C(C)(C)C)c2)cc1	-0.9%	2.3	-6.5	24.1%	-0.7%	-9.2	-1.4%
O=C(Nc1ccccc1N1CCOCC1)c1ccc(OCc2cscn2)cc1	/	-0.7	2.0	-1.6%	-11.0%	6.5	-6.1%
O=C(NC(=S)NCc1ccccc1)C1CC1	/	3.1	-4.7	23.2%	-2.4%	-3.8	-17.8%[15.4 µM]
